Screens from PubChem BioAssay.
VDR inh: vitamin D3 receptor (human) inhibition; P11473; VDR-SRC2-3 peptide fluorescence polarization, 2 h; Potency, µM, for the others: max response, negative = inhibition, actives largely listed as inhibitors; hit rate 0.93% among 400,000; AID 504847; active = well fitted inhibition curve with a large enough effect; inconclusive = small, poorly fitted or top-dose-only effect, or another doubt; inactive = no such curve, though single readings can be large or run the other way; note: series mostly up to about 120 µM
Target sequence (P11473 whole entry, looked up): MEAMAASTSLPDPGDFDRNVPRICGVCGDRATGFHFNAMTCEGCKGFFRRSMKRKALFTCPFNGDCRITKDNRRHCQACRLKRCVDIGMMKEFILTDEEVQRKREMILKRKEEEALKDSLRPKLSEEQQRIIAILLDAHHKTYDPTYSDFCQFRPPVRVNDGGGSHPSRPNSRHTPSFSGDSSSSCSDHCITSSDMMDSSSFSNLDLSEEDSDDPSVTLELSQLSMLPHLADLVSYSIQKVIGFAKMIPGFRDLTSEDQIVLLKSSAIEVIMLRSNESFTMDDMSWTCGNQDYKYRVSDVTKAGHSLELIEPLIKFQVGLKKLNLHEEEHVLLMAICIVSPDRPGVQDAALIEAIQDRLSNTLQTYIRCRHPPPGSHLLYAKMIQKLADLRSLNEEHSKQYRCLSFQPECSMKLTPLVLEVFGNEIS
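Reagent solutions, kept cold and dark, are dispensed first; compounds are then pinned in at 23 nl, plates briefly spun, and incubated 2 h at ambient temperature. Inhibition of VDR–SRC2-3 peptide binding is read by fluorescence polarization.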
Active calls of the source: *; u = inconclusive; & = joins results of further samples. % is set by controls: 0 for no effect and ±100 for the full control effect; potency is the fitted concentration of half-maximal effect.

VDR inh | molecule
u | O=C1[C@H](Oc2ccccc2)[C@@H](c2ccccc2)N1c1ccncc1
-7% | CCCC(=O)N(c1ccc2oc(C)c(C(C)=O)c2c1)S(=O)(=O)c1ccc(C(=O)O)cc1
-7% | COc1cccc(CNCc2cccc(OC)c2O)c1O
-3% | CN1CCN(C(=O)C(C(=O)c2ccc(F)cc2)n2ccccc2=O)CC1 (configuration not stated)
4% | CCOC(=O)C1=C(c2ccccc2)Nc2nc(C)nn2C1c1cccc(OC)c1OC (configuration not stated)
9% | C(=N\N1CCN(c2ccccn2)CC1)/C1=C(N2CCOCC2)C(=C/c2ccccc2)/CC1
3% | Cc1cccc(CNc2ncnc3ccc(-c4ccc(C(=O)N(C)C)cc4)cc23)c1
13% | CC(=O)c1c(C)[nH]c(C(=O)OCc2ccccc2F)c1C
9% | COC(=O)C1C(c2ccc(OC)cc2)NC(=O)NC1(O)C(F)(F)Cl (configuration not stated)
6% | CC(C)CNC(=O)NC(=O)COc1c(F)c(F)cc(F)c1F
-10% | O=C(CN(C(=O)c1ccccc1Cl)N1C(=O)CCCC1=O)c1ccc(Cl)cc1
5% | CCc1ccc(-n2c(SCc3cccc(F)c3)nc3[nH]ncc3c2=O)cc1
10% | Cc1ccc(-c2nc3scc(CCNS(=O)(=O)c4ccc(F)c(C)c4)n3n2)cc1
-5% | COc1cccc(SCc2noc(C(=O)NCc3ccccc3)c2C(=O)NCc2ccccc2)c1
-15% | CCN(CC)S(=O)(=O)c1ccc(N/N=C/c2ccccc2OCC(=O)O)c([N+](=O)[O-])c1
5% | CC(C)=C1C2CCC1C1C(=O)N(c3ccc(C)c(C)c3)C(=O)C21 (configuration not stated)
-11% | CCN1C(=O)[C@@H]2[C@H](C1=O)[C@@H]1C(=O)Nc3ccccc3C(=O)N1[C@@H]2c1ccc(OC)cc1
-5% | Cc1ccc(C)c(NC(=S)NC(NC(=O)/C=C/c2ccccc2)C(Cl)(Cl)Cl)c1 (configuration not stated)
0% | Cc1ccc(C)c(N2CCN(S(=O)(=O)c3ccc4c(c3)NC(=O)CS4)CC2)c1
4% | CN1CCOCCOCCN(C)C(=O)N2CCOCCOCCN(CCOCC2)C1=O
-9% | CCC(C)NC(=O)CSc1nc2ccccc2c(=O)n1CCCN1CCCCC1 (configuration not stated)
-1% | O=S(=O)(Cc1ccc(Cl)cc1)NCC1CCCO1 (configuration not stated)
-2%&6% | Cc1ccc(CCNC(=O)CN2C(=O)COc3ccc(S(=O)(=O)N4CCCCC4)cc32)cc1
-22% | Cc1ccc(C(=O)Nc2nnc(SCC(=O)N3CCCc4ccccc43)s2)cc1
-2% | O=C(NCC(c1cccs1)N1CCOCC1)c1ccc(Cl)c(S(=O)(=O)N2CCOCC2)c1 (configuration not stated)
-4% | CCN(CC)CCn1c(NC(=O)c2ccc(C)cc2)nc2ccccc21
u | CC(=O)NC1=NN(C(C)=O)C2(S1)C(=O)N(C(C)=O)c1ccc(C)cc12 (configuration not stated)
-4% | FC(F)Oc1ccc(NC(=S)NCc2ccccc2)cc1
-13% | O=C(c1cc([N+](=O)[O-])ccc1Cl)N1CCN(c2ccc(F)cc2)CC1
-22% | Cc1ccnc(SCc2ccc(C(=O)O)cc2)n1
5% | Cc1noc(C)c1CCC(=O)O
3% | COCCn1c(N)c(N(Cc2ccccc2)C(=O)c2cc(=O)[nH]c3ccccc23)c(=O)[nH]c1=O
-8% | O=C(NN1C(=O)c2ccccc2NC1c1ccoc1)c1ccccc1 (configuration not stated)
5% | c1ccc(-n2cnnc2SCc2cn3ccccc3n2)cc1
12% | CCCOc1cccc(OCC(=O)Nc2nc3ccccc3[nH]2)c1
2% | C=CCNC(=S)N1CCC(Cc2ccccc2)CC1
-3% | Cc1ccc(C)c(Oc2coc3cc(OC(=O)c4cccs4)ccc3c2=O)c1
-5% | Cc1ccc(C)c(NC(=O)C2CCCN2/C=C/C(=O)C(F)(F)F)c1 (configuration not stated)
0% | O=C(Nc1ccccc1)C1CCCN(C(=O)c2ccc(F)cc2)C1 (configuration not stated)
-21% | COc1ccc(NS(=O)(=O)c2ccc(N3C(=O)CCC3=O)cc2)cc1
-1% | Cc1cc2c(s1)c1cnn(Cc3ccccc3F)c(=O)c1n2C
8% | Cn1c(=O)c2c(ncn2Cc2ccc(Cl)c(Cl)c2)n(C)c1=O
21% | COc1ccccc1-c1sc2ccccc2c1-c1ccc(OCCN2CCCCC2)cc1
-3% | Cc1cccc(NC(=O)CCC2CCN(Cc3nccs3)CC2)c1
-6% | COC(=O)Cc1ccc(NC(=S)NCc2ccccc2Cl)cc1
-19% | Clc1ccc(CO/N=C/c2c(-c3ccccc3)nc3n2CCS3)c(Cl)c1
-4% | CCO/N=C(/c1nonc1N)N1CCN(c2ccc([N+](=O)[O-])cc2)CC1
0% | CCOc1ccc(-c2nonc2NC(=O)c2ccc(C)cc2)cc1OCC
2% | CC(=O)c1c(C)[nH]c(C(=O)OCc2csc(CC(=O)Nc3ccccc3C)n2)c1C
2% | CC(=O)c1ccc(NC(=O)c2nc(-c3ccccc3)n(-c3ccccc3)n2)cc1

Next section
VDR inh | molecule
-2% | O=C(O)c1cccc(NC(=O)c2cn(-c3ccccc3)nc2-c2cc3ccccc3o2)c1
9% | CCN(CC(=O)Nc1c(F)cccc1F)C(=O)c1ccc(COc2ccccc2)cc1
-1% | OCC[C@@H]1C[C@H](O)[C@@H](O)[C@@]2(OCc3ccccc32)O1
-12% | CCc1ccc(OCC(=O)NNC(=O)Cc2cccs2)cc1
-3% | C/C(=N/NC(=O)CNC(=O)c1cccnc1)c1cccc([N+](=O)[O-])c1
-9% | CC(=O)Nc1cc(NC(C)=O)cc(C(=O)NCC2(N3CCOCC3)CCCCC2)c1
7% | COc1ccc(C2CC(c3ccc(OC)cc3)n3nc(NS(C)(=O)=O)nc3N2)cc1 (configuration not stated)
2% | CCOc1ccc2ccccc2c1C1NC(=O)N(C)C(C)=C1C(=O)OCCOC (configuration not stated)
10% | COc1ccc(OCC(=O)Nc2nc(-c3ccc(Br)cc3)ns2)cc1
-10% | COc1cc(C(=O)C(=O)c2ccc(OC)c(OC)c2)ccc1O
-15% | O=C(CN1C(=O)C2C3C=CC(C4CC34)C2C1=O)Nc1cccc2ncccc12 (configuration not stated)
-26% | C[C@H](CO)N1C[C@H](C)[C@@H](CN(C)S(=O)(=O)c2cccs2)Oc2ccc(NC(=O)Cc3ccccc3)cc2C1=O
1% | COc1ccc(/C=N/n2c(C)nnc2C)c(OC)c1OC
6% | CCN1CCN(C(=O)CN(c2cc(OC)ccc2OC)S(C)(=O)=O)CC1
-8% | CCC(=O)c1ccc(OCC(=O)N(C)CC(=O)Nc2cccc(F)c2)cc1
16µM* | CCCOc1ccc(/C=C/C(=O)Nc2sc(C)c(C)c2C(=O)OCC)cc1OC
1% | COC(=O)c1sc(NC(=S)NNC(=O)c2c(Br)c(C)nn2C)c(C(=O)OC)c1C
-5% | COc1cccc(/C=N/n2c(-c3n[nH]c4c3CCC4)n[nH]c2=S)c1O
4% | COc1ccc(CCNC(=O)CCCn2c(=O)c3cccn3c3cccnc32)c(OC)c1OC
-9% | CCN1C(=O)[C@H]2[C@@H](c3ccc(-c4ccc(OC)cc4)cc3)N[C@@](C)(C(=O)OC)[C@H]2C1=O
5% | COc1ccc(-c2nnc(N(C)C(=O)C3CCOC3)s2)cc1 (configuration not stated)
-2% | Cc1ccc(-n2nc3c(N4CCC(C(=O)NCc5ccccc5C)CC4)nnc(C)c3c2C)cc1
-1% | Cc1c(Cl)cccc1NC(=O)CSc1nnc(CCNC(=O)OC(C)(C)C)o1
-6% | CCCn1c(SCc2nc(-c3ccccc3OCC)no2)nnc1-c1ccc(Cl)cc1
1% | O=C(O)c1ccc2c3c(cccc13)C(=O)N(OS(=O)(=O)c1ccccc1)C2=O

Molecules shown so far that contain a nitro group on carbon:
VDR inh | molecule
-15% | CCN(CC)S(=O)(=O)c1ccc(N/N=C/c2ccccc2OCC(=O)O)c([N+](=O)[O-])c1
-13% | O=C(c1cc([N+](=O)[O-])ccc1Cl)N1CCN(c2ccc(F)cc2)CC1
-4% | CCO/N=C(/c1nonc1N)N1CCN(c2ccc([N+](=O)[O-])cc2)CC1
-3% | C/C(=N/NC(=O)CNC(=O)c1cccnc1)c1cccc([N+](=O)[O-])c1

Continuation.
VDR inh | molecule
9% | O=C(Nc1ccc(S(=O)(=O)NC2=NCCCCC2)cc1)c1ccc(C(F)(F)F)cc1
-9% | CCCC(=O)Nc1ccc2oc(-c3ccc(O)c(Br)c3)nc2c1
15% | O=C(NNC(=S)Nc1ccccc1)c1cccnc1
1% | Cc1sc2nc(CSCC(=O)Nc3c(Cl)cccc3Cl)[nH]c(=O)c2c1C
5% | O=C(N/N=C/c1cn(-c2ccccc2)nc1-c1cc2ccccc2o1)c1ccccc1Br
40µM* | C=C1C(=O)OC2C=C(C)CCC=C(C)CCC12 (configuration not stated)
-11% | CCCC(C)NC(=O)C1c2ccccc2Oc2ccccc21 (configuration not stated)
0% | O=C(NCc1ccc(F)cc1)c1ccc(CS(=O)(=O)Cc2ccccc2F)o1
-11% | Cc1cc(C2C(C#N)=C(N)OC3=C2C(=O)CCC3)c(C)s1 (configuration not stated)
-21% | Cc1ccc(OCc2nc(-c3ccc(C(=O)N4CCN(c5cc(Cl)ccc5C)CC4)cc3)oc2C)cc1
-3% | COc1cc(S(=O)(=O)NCC(c2ccco2)N2CCCCC2)ccc1NC(C)=O (configuration not stated)
u | [O-][n+]1c2ccccc2[n+]([O-])c2cc(O)ccc21
12% | O=C(NCCSCc1ccco1)c1ccc(CN2CCOCC2)cc1
-5% | Cc1ccc(-c2nnc(SCc3nc4ccccc4[nH]3)n2Cc2ccco2)cc1
11% | CCCn1c(SCC(=O)c2cc(OC)ccc2OC)nc2c1c(=O)n(C)c(=O)n2C
-4% | CCOC(=O)c1nc(NCc2ccc(Cl)cc2)c2c(C)noc2n1
18% | N#Cc1c(NC(=O)Cn2c(=O)oc3ccccc32)oc(-c2ccccc2)c1-c1ccccc1
-6% | Cn1c(Cc2ccc3c(c2)OCO3)nnc1SCC(=O)N1CCc2ccccc2C1
3% | CCOc1ccc(CN2CCN(c3ncnc4scc(-c5ccccc5)c34)CC2)cc1
2% | CC(=NC1CC1)c1c(-c2ccccc2)[nH]n(-c2nc3ccccc3s2)c1=O
9% | O=C(CSc1n[nH]c(=O)[nH]c1=O)N/N=C/c1ccccc1O
9% | CN(CC(=O)NCc1ccc(Cl)cc1)S(=O)(=O)c1ccc2[nH]c3c(c2c1)CCCC3
-21% | NS(=O)(=O)c1ccc(CCNCc2ccccc2OCc2ccc(F)cc2)cc1
1% | Cc1ccc(-n2nc(C(=O)N3CCOCC3)cc2-c2ccc(Cl)cc2)cc1
-9% | COCCn1c(SCC(=O)Nc2cccc(C(=O)OC)c2)nc2ccccc2c1=O

The final seven compounds of the part before open the next one:
VDR inh | molecule
3% | CCOc1ccc(CN2CCN(c3ncnc4scc(-c5ccccc5)c34)CC2)cc1
2% | CC(=NC1CC1)c1c(-c2ccccc2)[nH]n(-c2nc3ccccc3s2)c1=O
9% | O=C(CSc1n[nH]c(=O)[nH]c1=O)N/N=C/c1ccccc1O
9% | CN(CC(=O)NCc1ccc(Cl)cc1)S(=O)(=O)c1ccc2[nH]c3c(c2c1)CCCC3
-21% | NS(=O)(=O)c1ccc(CCNCc2ccccc2OCc2ccc(F)cc2)cc1
1% | Cc1ccc(-n2nc(C(=O)N3CCOCC3)cc2-c2ccc(Cl)cc2)cc1
-9% | COCCn1c(SCC(=O)Nc2cccc(C(=O)OC)c2)nc2ccccc2c1=O
-2% | Cc1coc2c1c(C)cc1oc(=O)c(Cc3ccccc3)c(C)c12
5% | Cc1ccc(-n2nc3c(=O)n(CCCC(=O)NC(C)c4ccccc4)nc(C)c3c2C)cc1 (configuration not stated)
-12% | CC(O)c1ccc(-n2cnnn2)cc1 (configuration not stated)
0% | O=c1c2cnn(-c3ccc(F)cc3)c2ncn1Cc1ccccc1Cl
13% | Cc1cc(C(C)(C)C)ccc1OCC(=O)N/N=C\c1c(C)n(C)n(-c2ccccc2)c1=O
-12% | COc1ccc(-c2nc(SC(CC(=O)NCCN3CCOCC3)c3cccs3)n[nH]2)cc1 (configuration not stated)
-14% | CCOC(=O)c1sc(NC(=O)C(C)Oc2ccc(OC)cc2)c(C(=O)OCC)c1C (configuration not stated)
12% | CCCSCCCNC(=O)C1CCN(C(=O)c2cc3sccc3n2C)CC1
-14% | CCOc1ccc(OCC(=O)Nc2ccc(OC)cc2[N+](=O)[O-])cc1
-22% | COC(=O)c1ccccc1NC(=O)CN1C(=O)NC2(CCCCCCC2)C1=O
-7% | Cc1ccccc1NC(=O)COC(=O)c1cccnc1
-15% | CC(C)CCN(C(=S)Nc1cccc(C(F)(F)F)c1)C(C)c1ccccn1 (configuration not stated)
14% | CCOc1cccc2sc(N(CCN(C)C)C(=O)c3ccc(Br)s3)nc12
-17% | Cc1ccc(C(C)C)cc1OCC(=O)Nc1ccc(N2CCCCC2)cc1
1% | Cc1ccc2c(c1)c(C)c(C)n2CC(O)Cn1nc(C)cc1C (configuration not stated)
-5% | Cc1ccc(C)c(S(=O)(=O)NCc2ccc(C(=O)N3CCN(C)CC3)cc2)c1
3% | CCOC(=O)N1CCC(NC(=O)CN(c2ccc(C(C)C)cc2)S(=O)(=O)c2c(C)nn(C)c2C)CC1
-14% | CCCN1C2CCCC1CC(NC(=O)c1cccc(Cl)c1)C2 (configuration not stated)
-15% | Cc1cc(C)c(C)c(OCC(=O)N2CCN(c3ccccn3)CC2)c1
9% | O=C(Nc1cccnc1)c1ccc(COCC(F)(F)F)cc1
-10% | O=C(CSc1nnc(Cc2ccccc2)n1Cc1ccccc1)NCc1ccco1
u | COc1ccc(S(=O)(=O)Nc2ccc(O)c3ccccc23)cc1
-4% | C/C(=N\Nc1nc(C)cc(-c2ccccc2)n1)c1ccccc1

A portion of the library, so the mix of outcomes need not match the whole.
